Screens: PubChem BioAssay, Broad Institute
A1_apoptosis_2: A1 inhibition read as caspase activation; MEF A1-2A-BIM cells, caspase-Glo luminescence, 3 h; percent of clofoctol response, DMSO zero; caspase activation, % (no concentration beside the values); 24,000 tested, under 10 active; AID 2465; in the data active = caspase activation above about 5.9%;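 note: wells of about 30 µL received 50 nL stock; the first replicate is given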
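Test system – A1-2A-BIM-expressing MEF cells · Input – 2500 cells/well · Medium – RPMI-1640 growth medium with 10% FBS · Compound dosing – 50 nL pinned compound · Timing – 3 h compound exposure at 37 °C · Technique – Caspase-Glo luminescence (DEVD substrate) · Evaluation – Caspase-3/7 activity from luminescence increase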
* hit, by the source's call. The list is partial. The share of hits here may be higher or lower than overall.

A first look:
SMILES A1_apoptosis_2
C[C@@H]1CN([C@@H](C)CO)C(=O)c2cc(NC(=O)Nc3ccc(F)cc3)ccc2O[C@@H](C)CCCCO[C@@H]1CN(C)C(=O)c1ccccc1 0.4
CNC[C@H]1Oc2ccc(NS(=O)(=O)c3cccs3)cc2CC(=O)N([C@@H](C)CO)C[C@@H]1C 0.6
C[C@@H]1CCCCO[C@H](CN(C)CC2CC2)[C@@H](C)CN([C@H](C)CO)C(=O)c2cc(NC(=O)Nc3ccc(F)cc3)ccc2O1 -0.2
C[C@H](CO)N1C[C@H](C)[C@H](CN(C)C(=O)Nc2ccc(F)cc2)Oc2ccc(NC(=O)c3ccncc3)cc2CC1=O 0.3
COc1ccc(NC(=O)N(C)C[C@@H]2Oc3ccc(NC(=O)Nc4ccccc4)cc3CC(=O)N([C@H](C)CO)C[C@@H]2C)cc1 -0.6
C[C@@H]1CN([C@H](C)CO)C(=O)c2cc(NC(=O)CCN3CCOCC3)ccc2O[C@H]1CN(C)C -0.6

This part in full, from the start:
SMILES A1_apoptosis_2
C[C@@H]1CN([C@@H](C)CO)C(=O)c2cc(NC(=O)Nc3ccc(F)cc3)ccc2O[C@@H](C)CCCCO[C@@H]1CN(C)C(=O)c1ccccc1 0.4
CNC[C@H]1Oc2ccc(NS(=O)(=O)c3cccs3)cc2CC(=O)N([C@@H](C)CO)C[C@@H]1C 0.6
C[C@@H]1CCCCO[C@H](CN(C)CC2CC2)[C@@H](C)CN([C@H](C)CO)C(=O)c2cc(NC(=O)Nc3ccc(F)cc3)ccc2O1 -0.2
C[C@H](CO)N1C[C@H](C)[C@H](CN(C)C(=O)Nc2ccc(F)cc2)Oc2ccc(NC(=O)c3ccncc3)cc2CC1=O 0.3
COc1ccc(NC(=O)N(C)C[C@@H]2Oc3ccc(NC(=O)Nc4ccccc4)cc3CC(=O)N([C@H](C)CO)C[C@@H]2C)cc1 -0.6
C[C@@H]1CN([C@H](C)CO)C(=O)c2cc(NC(=O)CCN3CCOCC3)ccc2O[C@H]1CN(C)C -0.6
C[C@@H]1CN([C@@H](C)CO)C(=O)c2cccc(NS(=O)(=O)c3ccccc3)c2O[C@H]1CN(C)Cc1ccc(Oc2ccccc2)cc1 0.4
Cc1noc(C)c1S(=O)(=O)N(C)C[C@H]1OCCCC[C@@H](C)Oc2ccc(NS(=O)(=O)c3ccccc3)cc2C(=O)N([C@@H](C)CO)C[C@H]1C -0.6
COc1ccc(NC(=O)Nc2ccc3c(c2)C(=O)N([C@@H](C)CO)C[C@@H](C)[C@@H](CN(C)Cc2ccc(Cl)c(Cl)c2)O3)cc1 -1.2
Cc1noc(C)c1NC(=O)Nc1ccc2c(c1)C(=O)N([C@H](C)CO)C[C@@H](C)[C@H](CN(C)C(=O)Nc1cccc3ccccc13)OCCCC[C@@H](C)O2 -1.1

Six consecutive entries out of the list so far:
SMILES A1_apoptosis_2
C[C@@H]1CN([C@@H](C)CO)C(=O)c2cc(NC(=O)Nc3ccc(F)cc3)ccc2O[C@@H](C)CCCCO[C@@H]1CN(C)C(=O)c1ccccc1 0.4
CNC[C@H]1Oc2ccc(NS(=O)(=O)c3cccs3)cc2CC(=O)N([C@@H](C)CO)C[C@@H]1C 0.6
C[C@@H]1CCCCO[C@H](CN(C)CC2CC2)[C@@H](C)CN([C@H](C)CO)C(=O)c2cc(NC(=O)Nc3ccc(F)cc3)ccc2O1 -0.2
C[C@H](CO)N1C[C@H](C)[C@H](CN(C)C(=O)Nc2ccc(F)cc2)Oc2ccc(NC(=O)c3ccncc3)cc2CC1=O 0.3
COc1ccc(NC(=O)N(C)C[C@@H]2Oc3ccc(NC(=O)Nc4ccccc4)cc3CC(=O)N([C@H](C)CO)C[C@@H]2C)cc1 -0.6
C[C@@H]1CN([C@H](C)CO)C(=O)c2cc(NC(=O)CCN3CCOCC3)ccc2O[C@H]1CN(C)C -0.6

Additional compounds follow:
SMILES A1_apoptosis_2
C[C@@H]1CN([C@H](C)CO)C(=O)c2cc(NC(=O)Nc3cccc4ccccc34)ccc2O[C@@H](C)CCCCO[C@H]1CN(C)Cc1ccccc1 0.2
C[C@@H]1CCCCO[C@H](CN(C)S(=O)(=O)c2ccccc2)[C@@H](C)CN([C@H](C)CO)C(=O)c2cc(NS(=O)(=O)c3cn(C)cn3)ccc2O1 1.4
C[C@@H]1CN([C@H](C)CO)C(=O)c2cc(NC(=O)CCCN(C)C)ccc2O[C@H]1CN(C)C(=O)Nc1ccc(F)cc1 -1.1
C[C@@H]1CN([C@@H](C)CO)C(=O)Cc2cc(NC(=O)Nc3ccc(F)cc3)ccc2O[C@H]1CN(C)Cc1ccc(C(F)(F)F)cc1 -0.9
Cc1noc(C)c1S(=O)(=O)Nc1ccc2c(c1)C(=O)N([C@H](C)CO)C[C@@H](C)[C@H](CN(C)CC1CCCCC1)OCCCC[C@@H](C)O2 -0.5
C[C@@H]1CN([C@@H](C)CO)C(=O)c2cc(NC(=O)Nc3ccccc3)ccc2O[C@@H](C)CCCCO[C@H]1CN(C)C(=O)c1ccccc1 1.6
C[C@@H]1CN([C@@H](C)CO)C(=O)Cc2cc(NC(=O)CCCN(C)C)ccc2O[C@H]1CN(C)CC1CCCCC1 -0.6
COC(=O)CCCCCCC(=O)N/N=C/c1cc(O)ccc1Br -0.7
CC(C)NC(=O)Nc1ccc2c(c1)C(=O)N([C@H](C)CO)C[C@@H](C)[C@H](CN(C)CC1CCCCC1)OCCCC[C@@H](C)O2 1.3
C[C@H](CO)N1C[C@H](C)[C@@H](CN(C)Cc2ccc3c(c2)OCO3)Oc2c(NC(=O)NC3CCCCC3)cccc2C1=O -0.8
C[C@H](CO)N1C[C@H](C)[C@@H](CN(C)S(=O)(=O)c2ccc(Cl)cc2)Oc2ccc(NC(=O)Nc3cccc4ccccc34)cc2C1=O 2.2
CNC[C@H]1OCCCC[C@H](C)Oc2ccc(NC(=O)C3CCCCC3)cc2C(=O)N([C@@H](C)CO)C[C@@H]1C 0.1
C[C@H](CO)N1C[C@H](C)[C@@H](CN(C)S(C)(=O)=O)Oc2c(NC(=O)c3nc4ccccc4s3)cccc2C1=O 1.9
C[C@@H]1CN([C@@H](C)CO)C(=O)c2cc(NC(=O)Nc3ccc(F)cc3)ccc2O[C@H]1CN(C)S(C)(=O)=O 0.2
C[C@@H]1CN([C@H](C)CO)C(=O)Cc2cc(NC(=O)c3ccncc3)ccc2O[C@H]1CN(C)C 0.0
CC(C)NC(=O)Nc1ccc2c(c1)C(=O)N([C@@H](C)CO)C[C@@H](C)[C@@H](CN(C)S(=O)(=O)c1cccs1)OCCCC[C@@H](C)O2 -0.4
C[C@H](CO)N1C[C@H](C)[C@@H](CN(C)Cc2ccc(C(=O)O)cc2)Oc2c(NC(=O)C3CCCCC3)cccc2C1=O -0.7
Cc1ccc(S(=O)(=O)N(C)C[C@@H]2Oc3ccc(NS(=O)(=O)c4cn(C)cn4)cc3C(=O)N([C@H](C)CO)C[C@@H]2C)cc1 -1.0
C[C@@H]1CCCCO[C@@H](CN(C)C(=O)C2CCCCC2)[C@@H](C)CN([C@H](C)CO)C(=O)c2cc(NC(=O)Nc3ccc4c(c3)OCO4)ccc2O1 0.3
C[C@H](CO)N1C[C@H](C)[C@H](CN(C)S(=O)(=O)c2cccc(F)c2)Oc2ncc(C#Cc3ccccc3)cc2C1=O -0.5
O=C(C1=C[C@H](c2ccc(C(F)(F)F)cc2)C[C@H](OCCCCO)O1)N1CCN(Cc2ccc3c(c2)OCO3)CC1 -0.3
C[C@H]1CN([C@@H](C)CO)C(=O)Cc2cc(NS(=O)(=O)c3cn(C)cn3)ccc2O[C@@H]1CN(C)C(=O)NC1CCCCC1 -1.5
CNC[C@@H]1Oc2ccc(NS(=O)(=O)c3cccs3)cc2CC(=O)N([C@H](C)CO)C[C@@H]1C -0.2
C[C@@H]1CN([C@H](C)CO)C(=O)Cc2cc(NC(=O)Nc3ccccc3)ccc2O[C@H]1CN(C)S(=O)(=O)c1ccccc1 -0.7
COc1ccc(S(=O)(=O)Nc2ccc3c(c2)C(=O)N([C@@H](C)CO)C[C@@H](C)[C@H](CN(C)CC2CC2)OCCCC[C@H](C)O3)cc1 -1.2
C[C@@H]1CN([C@H](C)CO)C(=O)c2cc(NS(=O)(=O)c3ccccc3)ccc2O[C@@H]1CN(C)Cc1ccc2c(c1)OCO2 -0.5
Cc1noc(C)c1S(=O)(=O)Nc1ccc2c(c1)CC(=O)N([C@@H](C)CO)C[C@@H](C)[C@@H](CN(C)C(=O)NC(C)C)O2 0.1
COc1ccc(C#Cc2cnc3c(c2)C(=O)N([C@H](C)CO)C[C@H](C)[C@H](CN(C)Cc2ccccc2)O3)cc1OC -0.2
Cc1noc(C)c1S(=O)(=O)N(C)C[C@@H]1OCCCC[C@@H](C)Oc2ccc(NC(=O)NC3CCCCC3)cc2C(=O)N([C@H](C)CO)C[C@H]1C 2.0
C[C@@H]1CN([C@H](C)CO)C(=O)c2cc(NC(=O)CCCN(C)C)ccc2O[C@@H](C)CCCCO[C@@H]1CN(C)C(=O)Nc1ccccc1 -0.1
CNC[C@H]1OCCCC[C@H](C)Oc2ccc(NC(=O)Nc3ccc4c(c3)OCO4)cc2C(=O)N([C@@H](C)CO)C[C@@H]1C 0.0
C[C@@H]1CN([C@@H](C)CO)C(=O)c2cc(NS(=O)(=O)c3ccc(F)cc3)ccc2O[C@H]1CN(C)C 2.0
C[C@@H]1CN([C@@H](C)CO)C(=O)c2cc(NC(=O)C3CCCCC3)ccc2O[C@@H](C)CCCCO[C@H]1CN(C)Cc1ccc(Cl)c(Cl)c1 -1.3
C[C@@H]1CCCCO[C@@H](CN(C)C(=O)c2ccccc2)[C@@H](C)CN([C@H](C)CO)C(=O)c2cc(NC(=O)CCCN(C)C)ccc2O1 -0.3
C[C@@H]1CN([C@H](C)CO)C(=O)c2cccc(NS(=O)(=O)c3ccccc3)c2O[C@@H]1CN(C)C(=O)Nc1ccc(C(F)(F)F)cc1 -0.2
C[C@H](CO)N1C[C@H](C)[C@H](CN(C)S(=O)(=O)c2ccccc2)Oc2ncc(C#Cc3ccccc3)cc2C1=O 1.3
C[C@H](CO)N1C[C@H](C)[C@H](CN(C)Cc2ccc3c(c2)OCO3)Oc2ccc(NC(=O)Nc3ccc(C(F)(F)F)cc3)cc2CC1=O 0.4
O=C(N/N=C/c1ccccc1Br)c1ccccn1 -9.9
C[C@H]1CCCCO[C@@H](CN(C)C)[C@@H](C)CN([C@@H](C)CO)C(=O)c2cc(NC(=O)c3ccncc3)ccc2O1 -0.3
C[C@H](CO)N1C[C@H](C)[C@H](CN(C)C(=O)c2ccncc2)OCCCC[C@H](C)Oc2ccc(NC(=O)CCCCCC(=O)Nc3ccccc3N)cc2C1=O 2.3
C[C@H](CO)N1C[C@H](C)[C@H](CN(C)C(=O)c2ccccc2)OCCCC[C@H](C)Oc2ccc(NC(=O)Nc3ccccc3)cc2C1=O -0.2
COc1ccc(S(=O)(=O)Nc2ccc3c(c2)C(=O)N([C@@H](C)CO)C[C@@H](C)[C@@H](CN(C)Cc2ccc(C(=O)O)cc2)OCCCC[C@H](C)O3)cc1 -0.2
COc1ccc(S(=O)(=O)N(C)C[C@@H]2Oc3ccc(NS(=O)(=O)c4ccc(C)cc4)cc3C(=O)N([C@@H](C)CO)C[C@H]2C)cc1 0.6
COc1ccc(CN(C)C[C@H]2Oc3ccc(NC(=O)Nc4c(C)noc4C)cc3C(=O)N([C@H](C)CO)C[C@H]2C)cc1 -0.4
Cc1ccc(S(=O)(=O)N(C)C[C@@H]2Oc3ccc(NC(=O)Nc4ccc(F)cc4)cc3C(=O)N([C@@H](C)CO)C[C@@H]2C)cc1 -0.2
C[C@@H]1CN([C@H](C)CO)C(=O)c2cc(NC(=O)CCC(F)(F)F)ccc2O[C@H]1CN(C)S(=O)(=O)c1ccc(Cl)cc1 1.1
C[C@@H]1CN([C@@H](C)CO)C(=O)c2cc(NC(=O)Nc3ccc(F)cc3)ccc2O[C@@H]1CN(C)Cc1ccc(C(=O)Nc2ccccc2N)cc1 1.0
C[C@@H]1CN([C@H](C)CO)C(=O)c2cc(NC(=O)CCC(F)(F)F)ccc2O[C@H]1CN(C)CC1CCCCC1 -1.0
C[C@H](CO)N1C[C@H](C)[C@@H](CN(C)C(=O)Nc2ccc(C(F)(F)F)cc2)OCCCC[C@H](C)Oc2ccc(NC(=O)c3ccncc3)cc2C1=O -1.6
C[C@@H]1CN([C@H](C)CO)C(=O)c2cc(NS(=O)(=O)c3ccccc3)ccc2O[C@@H]1CN(C)C(=O)Nc1ccc(F)cc1 -0.8
